LANA-H2A inh: blocks KSHV LANA binding to histone H2A/H2B; Q9QR71; cell-free LANA-H2A/H2B peptide, fluorescence polarization; inhibition, % (test concentration not listed); 320,000 tested, 0.6% active; in the data active = inhibition mostly above about 10%, no sharp cut-off; inactive = mostly below about 6.7%;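 note: stock transfer was 7.5 nL into about 10 µL; 0% = median of vehicle wells and 100% = median of positive control wells; one replicate is shown; the record names a cut of 25% in any replicate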
ALR H2O2 inh: blocks human ALR sulfhydryl oxidase activity; purified ALR, DTT oxidation, H2O2 HRP-luminol luminescence; inhibition, % (no concentration beside the values); 290,000 tested, 3.8% active; AID 485317;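 active = mean and each replicate at 75% or more; inconclusive = only one of the two met; inactive = neither met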;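 note: stock transfer was 7.5 nL into about 7.5 µL; 0% = neutral wells and 100% = wells with inactivated enzyme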
Target sequence (P55789 whole entry, looked up): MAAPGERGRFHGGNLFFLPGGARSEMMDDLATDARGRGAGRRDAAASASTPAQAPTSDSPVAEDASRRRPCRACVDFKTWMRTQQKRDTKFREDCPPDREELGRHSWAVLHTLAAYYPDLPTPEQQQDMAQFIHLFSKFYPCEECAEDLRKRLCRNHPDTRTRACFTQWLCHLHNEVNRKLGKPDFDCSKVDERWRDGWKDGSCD
Calb FLC: C. albicans growth modulation with fluconazole; AID 1979; 300,000 tested, 0.57% active; growth inhibition, % (test concentration not listed); C. albicans CaCi-2 (fluconazole-resistant clinical isolate) + fluconazole, Alamar Blue growth, 48 h;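 active = most replicates above 75%; inconclusive = exactly half above 75%; inactive = most below 75%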;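 note: all wells also contain fluconazole at 8 µg/ml as a sub-toxic cotreatment; 0% = median of DMSO wells and 100% = median of geldanamycin control wells; wells of about 8 µL received 7.5 nL stock; the first replicate is given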
HNF4A DNA FP: change in binding of human HNF4 alpha to DNA. P41235. HNF4a-FITC DNA binding, fluorescence polarization, 1 h. activity change, % at 10 µM. 360,000 tested, 0.3% active. AID 1224865; in the data active = activity change above about 30%, passing the limit was not always enough;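 note: controls were the assay level and a saturating level of protein; the project sought stronger binding though the title names inhibitors; some compounds called inactive have numbers as strong as hits; positive values seem to mean higher polarization but the record does not say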
Target sequence (P41235 whole entry, looked up): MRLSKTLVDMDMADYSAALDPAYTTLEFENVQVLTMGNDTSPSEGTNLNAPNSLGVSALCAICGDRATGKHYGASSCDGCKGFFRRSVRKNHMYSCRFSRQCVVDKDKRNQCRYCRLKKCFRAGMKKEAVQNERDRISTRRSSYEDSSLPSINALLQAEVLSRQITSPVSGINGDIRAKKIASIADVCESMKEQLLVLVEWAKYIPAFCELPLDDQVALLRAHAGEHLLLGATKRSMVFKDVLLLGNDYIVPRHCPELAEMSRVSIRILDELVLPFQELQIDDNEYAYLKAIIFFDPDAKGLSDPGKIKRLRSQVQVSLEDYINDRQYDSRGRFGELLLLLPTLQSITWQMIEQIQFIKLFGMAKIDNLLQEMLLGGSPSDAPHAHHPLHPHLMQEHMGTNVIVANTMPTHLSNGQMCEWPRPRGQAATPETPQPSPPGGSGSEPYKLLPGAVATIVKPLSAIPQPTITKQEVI
Beta2AR agonist: agonists of human beta-2 adrenergic receptor inducing internalization | P07550 | Am2.2-beta2AR cells, FAP receptor internalization, flow cytometry; reference of the scale not given here | response, % (test concentration not listed) | 340,000 tested, 0.43% active | AID 504454;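 active = response above a set limit, near 3 SD of response in nonfluorescent compounds, cut at about 42% in these data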;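 note: stock transfer was 100 nL into about 11 µL; a reference agonist was the positive control; negative values mostly stem from fluorescent compounds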
Target sequence (P07550 whole entry, looked up): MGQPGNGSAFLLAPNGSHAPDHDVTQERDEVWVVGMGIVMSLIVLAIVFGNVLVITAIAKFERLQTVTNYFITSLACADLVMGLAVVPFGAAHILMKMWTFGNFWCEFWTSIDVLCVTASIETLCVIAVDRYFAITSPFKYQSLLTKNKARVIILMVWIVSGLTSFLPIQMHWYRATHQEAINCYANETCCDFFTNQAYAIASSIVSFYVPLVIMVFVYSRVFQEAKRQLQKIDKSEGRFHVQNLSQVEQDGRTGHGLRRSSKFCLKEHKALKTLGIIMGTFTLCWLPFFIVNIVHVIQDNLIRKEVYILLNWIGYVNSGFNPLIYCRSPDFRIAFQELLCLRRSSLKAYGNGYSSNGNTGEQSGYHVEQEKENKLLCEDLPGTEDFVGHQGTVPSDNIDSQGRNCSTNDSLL
RanGTP-Imp inh: disruptors of Ran-importin-beta complex formation – biochemical, FRET, CFP-Ran, YFP-importin-beta, homogeneous, primary screen | 300,000 tested, 1.1% active | cell-free CFP-Ran/YFP-importin-beta FRET ratio | inhibition, % (concentration not given with the values);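 active = most replicates above 15%; inconclusive = exactly half above 15%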;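 note: 0% = DMSO wells and 100% = Ran loaded with GDP instead of GTP; wells of about 40 µL received 100 nL stock; the first replicate is given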
Vif TR-FRET: HIV-1 Vif–A3G interaction blockers – biochemical, TR-FRET, GST-Vif 1-94, biotin-A3G peptide, dose response retest, primary screen (AID 1117319) | TR-FRET GST-Vif / biotin-A3G peptide binding; higher % means a stronger effect; test concentration not given here; strong numbers were not always called active | inhibition, %; hits with a dose series show IC50 in µM | 260,000 tested, 0.57% active;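 active = above the screen mean plus three standard deviations and confirmed in dose response; inconclusive = results disagree or hit not tested in dose response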;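 note: Vif residues 1-94 fused to GST binding biotinylated APOBEC3G peptide 110-148; 0% = full assay without inhibitor and 100% = GST in place of GST-Vif; retest series ran down from 100 µM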
An asterisk follows results filed as active; ? = inconclusive; nt = no result given.

cpd	SMILES	LANA-H2A inh	ALR H2O2 inh	Calb FLC	HNF4A DNA FP
1	O=C(O)C(F)(F)C(NCc1ccccc1)c1ccccc1 (stereo not given)	-0.9	-3	4	0.4
2	Cc1cc(C)n2c(Br)c(CN3CCCC(C)C3)nc2n1 (stereo not given)	-1.6	-9	0	-1.7
3	CC(CCc1ccccc1)NC(=O)c1ccccc1Cl (stereo not given)	0.5	4	-8	-0.6
4	COc1cc(C(=O)NCc2nnc(SCC(=O)NCCc3ccccc3)o2)cc(OC)c1OC	1.3	-1	-15	0.5
5	COc1ccc(S(=O)(=O)N2CCCCC2C)cc1 (stereo not given)	-0.2	-2	-19	-0.4
6	O=C(COc1ccccc1)N1N=C(c2cccnc2)CC1(O)C(F)(F)F (stereo not given)	4.6	0	-27	0.1
7	Cc1ccc(NC(=O)C2CCCN2C(=O)NC2CCCCC2)cc1C (stereo not given)	-0.3	nt	-22	-2.0
8	Cc1ccc(OCc2cc(C(=O)N(C)CCc3nc4ccccc4[nH]3)no2)cc1C	nt	nt	-4	-1.9
9	COc1ccc(C(=O)COC(=O)COc2ccc(C)c(C)c2)cc1	nt	nt	16	0.3
10	COc1ccccc1CN1CCNC(=O)C1CC(=O)NCCOc1cccnc1 (stereo not given)	-2.7	-10	-4	-2.1

cpd	Beta2AR agonist	RanGTP-Imp inh	Vif TR-FRET
1	-9	1.5	-2%
2	-15	1.6	-1%
3	3	-0.1	nt
4	0	?	nt
5	-6	8.4	nt
6	-12	-6.5	-2%
7	-3	-2.1	nt
8	0	-5.5	nt
9	6	2.5	4%
10	-9	1.5	-8%

Record cards (already shown). Values in the order: LANA-H2A inh	ALR H2O2 inh	Calb FLC	HNF4A DNA FP	Beta2AR agonist	RanGTP-Imp inh	Vif TR-FRET
COc1ccccc1CN1CCNC(=O)C1CC(=O)NCCOc1cccnc1 (stereo not given) is entered as -2.7	-10	-4	-2.1	-9	1.5	-8%
Cc1ccc(NC(=O)C2CCCN2C(=O)NC2CCCCC2)cc1C (stereo not given) is entered as -0.3	nt	-22	-2.0	-3	-2.1	nt
COc1ccc(C(=O)COC(=O)COc2ccc(C)c(C)c2)cc1 is entered as nt	nt	16	0.3	6	2.5	4%
O=C(O)C(F)(F)C(NCc1ccccc1)c1ccccc1 (stereo not given) is entered as -0.9	-3	4	0.4	-9	1.5	-2%
Cc1ccc(OCc2cc(C(=O)N(C)CCc3nc4ccccc4[nH]3)no2)cc1C is entered as nt	nt	-4	-1.9	0	-5.5	nt

(next part)
cpd	SMILES	LANA-H2A inh	ALR H2O2 inh	Calb FLC	HNF4A DNA FP
11	O=C(CC(=O)Nc1cccc(Cl)c1Cl)Nc1cccc(Cl)c1Cl	1.9	nt	-4	0.9
12	C=CCN(CC(=O)Nc1c(C)cccc1CC)C(=O)SCCC	-5.3	-3	-4	0.9
13	COc1ccc(/C=N/OCC(=O)Nc2ccc3c(c2)OCO3)c(OC)c1	3.6	-14	11	4.9
14	Cc1nnc(N/N=C/c2cccc(OCc3ccc(Cl)c(Cl)c3)c2)n1N	-1.3	-9	-13	2.9
15	Cc1cc(N/N=C/c2ccco2)c2ccccc2n1	-4.3	77*	-7	-0.3
16	COc1ccccc1S(=O)(=O)CC(O)COc1ccc(C#N)cc1 (stereo not given)	4.6	-6	-11	0.3
17	O=C(Nc1ccc2oc(-c3ccccc3F)nc2c1)c1ccc2c(c1)OCCO2	-4.6	1	11	-1.8
18	COCCNc1oc(-c2ccc(F)cc2)nc1C#N	-0.2	18	-22	-0.9
19	O=C(NN=C1CCCCCCC1)c1ccc(F)cc1	-3.1	0	-3	4.1
20	O=C(CCc1ccccc1)Nc1ccc(F)cc1F	-0.4	-10	-3	3.6

cpd	Beta2AR agonist	RanGTP-Imp inh	Vif TR-FRET
11	5	-0.8	-5%
12	3	-2.4	28%
13	6	5.6	nt
14	-2	-0.7	nt
15	5	-1.6	-6%
16	2	8.2	3%
17	23	0.4	0%
18	-2	1.0	-5%
19	-3	-2.3	-4%
20	-8	-1.0	2%

The results go on:
cpd	SMILES	LANA-H2A inh	ALR H2O2 inh	Calb FLC	HNF4A DNA FP
21	Cc1ccc(-c2nc(-c3ccccc3)no2)cc1	0.0	nt	-4	-0.9
22	O=C1N(c2ccccc2)C(=Nc2ccccc2)SC12CC2	-1.4	-1	-4	-1.4
23	O=C(C1=C[C@@H](c2ccc(Br)cc2)C[C@@H](OCc2ccc(CO)cc2)O1)N1CCN(Cc2ccc3c(c2)OCO3)CC1	-6.1	-8	-2	4.5
24	CCOc1cc(C(=O)OCC(=O)Nc2c(C)cccc2C)ccc1OCC(=O)N1CCOCC1	0.0	-7	-15	-0.3
25	CCOC(=O)N1CCC(NC(=O)Cn2nc(-c3ccccc3)ccc2=O)CC1	-1.6	-4	-7	6.6
26	CC(=O)NCCC1CCCCN1Cc1nc(Cc2cccc(C(F)(F)F)c2)no1 (stereo not given)	-0.9	-5	8	2.2
27	CCNc1nc(NCC)n2c(SCC(=O)Nc3ccc(OC(F)F)cc3)nnc2n1	nt	nt	7	-3.3
28	COc1ccc(CNC(=O)Nc2cccc(C)c2)cc1	0.3	2	-27	1.1
29	Cc1ccc(CC(=O)Nc2ccc(C(=O)N3CCCCC3)cc2)cc1	-0.8	-1	-5	-2.5
30	Oc1csc(Cc2nc(-c3ccc(-c4ccccc4)cc3)cs2)n1	-1.7	-1	-4	2.2

cpd	Beta2AR agonist	RanGTP-Imp inh	Vif TR-FRET
21	2	7.2	66%
22	-9	1.6	10%
23	0	0.9	0%
24	4	2.9	4%
25	-5	1.6	6%
26	-1	-2.7	6%
27	-4	-2.8	16%
28	2	2.5	-3%
29	1	-0.7	nt
30	0	-6.0	?

Next section:
cpd	SMILES	LANA-H2A inh	ALR H2O2 inh	Calb FLC	HNF4A DNA FP
31	CCOC(=O)C1=CN(Cc2cccc(F)c2)S(=O)(=O)NC1c1cccc(OC)c1 (stereo not given)	nt	nt	nt	-2.0
32	C(=N\N(c1ccccc1)c1ccccc1)/c1ccc2c(c1)OCO2	6.4	-5	-1	-0.8
33	CCc1ccc(C(C(=O)NCc2ccc(OC)cc2)N(CCOC)C(=O)Cc2cccs2)cc1 (stereo not given)	1.5	4	6	-4.4
34	CCOC(=O)N1CCC(N2C(=O)c3ccccc3C2Nc2cccnc2)CC1 (stereo not given)	7.4	nt	4	-0.5
35	COc1ccc(-c2nc(CN3CCN(c4ncnc5ccccc45)CC3)c(C)o2)c(OC)c1	-2.9	nt	-11	-4.1
36	CCOC(=O)c1ccc(Oc2nc(OC)nc(N(C)C)n2)cc1	-3.3	-2	4	7.4
37	Cc1cc(NC(=O)CCC(=O)N(Cc2ccccc2)C2(C(=O)NC3CCCCC3)CCCC2)no1	-7.2	-4	-8	3.0
38	Cc1csc(SC(C)C(=O)NC2CCCCC2C)n1 (stereo not given)	2.3	0	6	-3.9
39	O=C(N/N=C/c1ccc([N+](=O)[O-])cc1)c1ccc(NS(=O)(=O)c2cccs2)cc1	0.3	0	nt	-0.8
40	CC(C)(C)OC(=O)N1CCC(C(=O)N[C@@H](Cc2ccccc2)C(=O)O)CC1	5.1	-11	-14	3.2

cpd	Beta2AR agonist	RanGTP-Imp inh	Vif TR-FRET
31	3	nt	-3%
32	10	-3.0	-1%
33	-3	?	0%
34	-3	0.6	-2%
35	-14	2.2	4%
36	-2	0.0	16%
37	-8	-5.3	0%
38	-2	2.5	-8%
39	4	nt	0%
40	-1	0.9	-2%

Some of these compounds in order of the RanGTP-Imp inh value, high to low.
entry	compound	RanGTP-Imp inh
5	COc1ccc(S(=O)(=O)N2CCCCC2C)cc1 (stereo not given)	8.4
21	Cc1ccc(-c2nc(-c3ccccc3)no2)cc1	7.2
18	COCCNc1oc(-c2ccc(F)cc2)nc1C#N	1.0
11	O=C(CC(=O)Nc1cccc(Cl)c1Cl)Nc1cccc(Cl)c1Cl	-0.8
19	O=C(NN=C1CCCCCCC1)c1ccc(F)cc1	-2.3

Further results follow.
cpd	SMILES	LANA-H2A inh	ALR H2O2 inh	Calb FLC	HNF4A DNA FP
41	Cc1ccc(NC(=O)c2ccccc2-c2ccc(C(F)(F)F)cc2)cc1S(=O)(=O)N1CCOCC1	11	-4	55	-0.1
42	CN(C)/C=N/S(=O)(=O)c1cccn1-c1ncc(C(F)(F)F)cc1Cl	3.1	1	20	0.5
43	O=C(Nc1ccc(F)cc1)c1cc(Cl)sc1Cl	-2.0	-3	-13	-0.3
44	Cc1cccc(C)c1NC(=S)Nc1ccc(Cl)c(Cl)c1	3.3	-2	-31	-4.3
45	O=C(Oc1cccc(/C=N/Nc2nc(N3CCOCC3)nc(N3CCOCC3)n2)c1)c1ccco1	-1.5	-2	1	-1.4
46	Cc1oc(-c2cccs2)nc1CN1CCC(C(=O)N2CCCC2)CC1	0.9	-7	-3	5.5
47	CC(C(=O)NC1CCCC1)N(C(=O)c1snc(C(N)=O)c1N)c1ccc2c(c1)OCCO2 (stereo not given)	-1.1	96*	-14	0.6
48	C=CCOC(=O)CCCC(=O)NC1CCCCC1	1.5	nt	-6	-0.7
49	CCc1nonc1NC(=O)c1oc2c(C)c(C)ccc2c1C	nt	33	-4	-1.7
50	CC(=O)N/C(=C/c1ccc(Cl)cc1)C(=O)NCCc1c[nH]c2ccccc12	3.4	9	7	-0.7

cpd	Beta2AR agonist	RanGTP-Imp inh	Vif TR-FRET
41	1	5.2	-3%
42	1	0.0	0%
43	-6	nt	nt
44	14	6.4	3%
45	11	3.4	-3%
46	-2	-1.2	11%
47	-19	0.5	?
48	7	-0.4	4%
49	-2	-0.3	nt
50	1	-1.7	-2%

(continued)
cpd	SMILES	LANA-H2A inh	ALR H2O2 inh	Calb FLC	HNF4A DNA FP
51	NC(=S)Nc1cccc(F)c1	-2.7	nt	-5	6.2
52	CSc1nnc(C2CCCN2)n1C (stereo not given)	-3.7	-2	1	2.2
53	O=C(COC(=O)Cc1ccc(S(=O)(=O)N2CCOCC2)s1)NCc1ccccc1	-2.1	-8	-6	3.5
54	Cc1cc(C(=O)COC(=O)c2cccnc2Cl)c(C)n1C	-1.4	17	nt	-2.9
55	COc1cc2c(cc1OC)C(C)N(C(=O)c1nccnc1C(=O)O)CC2 (stereo not given)	-8.1	-17	13	1.5
56	CC(=O)N(Cc1ccccc1)c1c(N)nc(N)[nH]c1=O	-3.2	-7	-8	1.0
57	N#CC1=C(N)Oc2n[nH]c(-c3ccccn3)c2C1c1c(F)cccc1Cl (stereo not given)	-2.8	57	-22	1.1
58	CCOCCCNS(=O)(=O)c1ccc(OC)c(Cl)c1Cl	-2.8	-11	25	-1.1
59	CCOc1ccc(NC(=O)CN2CCN(CC(=O)Nc3ccc(Cl)c(C(F)(F)F)c3)CC2)cc1	-2.9	0	?	0.1
60	Cc1cc(NC(=O)CSc2nc3c(c(=O)n2-c2ccc(Br)cc2)SCC3)no1	-3.3	-3	-8	2.5
61	O=C(Nc1nccs1)C1CC(=O)N(c2ccccc2)C1 (stereo not given)	4.7	nt	2	14
62	COCCNS(=O)(=O)c1ccc(F)c(OC)c1	-0.3	-5	-18	0.4
63	COc1ccc(NC(=O)C2CCCCN2CC(=O)OCc2ccccc2)cc1OC (stereo not given)	-0.4	-13	-4	0.6

cpd	Beta2AR agonist	RanGTP-Imp inh	Vif TR-FRET
51	-3	5.6	nt
52	-4	1.5	5%
53	5	0.2	8%
54	-6	nt	nt
55	-7	7.7	21%
56	6	0.7	nt
57	9	-6.5	17%
58	-2	3.5	4%
59	10	?	?
60	-12	-2.7	?
61	9	-1.0	-2%
62	1	nt	32%
63	-2	1.7	4%

Assay outcomes from PubChem BioAssay.
